# LANA-H2B inh: blocks KSHV LANA binding to histone H2A/H2B; Q9QR71; cell-free LANA-H2A/H2B peptide, fluorescence polarization; inhibition, % (test concentration not listed); hit rate 0.6% among 320,000; in the data active = inhibition mostly above about 10%, no sharp cut-off; inactive = mostly below about 6.7%;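 also: stock transfer was 7.5 nL into about 10 µL; 0% = median of vehicle wells and 100% = median of positive control wells; one replicate is shown; the record names a cut of 25% in any replicate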
# Target sequence (Q9QR71 whole entry, looked up): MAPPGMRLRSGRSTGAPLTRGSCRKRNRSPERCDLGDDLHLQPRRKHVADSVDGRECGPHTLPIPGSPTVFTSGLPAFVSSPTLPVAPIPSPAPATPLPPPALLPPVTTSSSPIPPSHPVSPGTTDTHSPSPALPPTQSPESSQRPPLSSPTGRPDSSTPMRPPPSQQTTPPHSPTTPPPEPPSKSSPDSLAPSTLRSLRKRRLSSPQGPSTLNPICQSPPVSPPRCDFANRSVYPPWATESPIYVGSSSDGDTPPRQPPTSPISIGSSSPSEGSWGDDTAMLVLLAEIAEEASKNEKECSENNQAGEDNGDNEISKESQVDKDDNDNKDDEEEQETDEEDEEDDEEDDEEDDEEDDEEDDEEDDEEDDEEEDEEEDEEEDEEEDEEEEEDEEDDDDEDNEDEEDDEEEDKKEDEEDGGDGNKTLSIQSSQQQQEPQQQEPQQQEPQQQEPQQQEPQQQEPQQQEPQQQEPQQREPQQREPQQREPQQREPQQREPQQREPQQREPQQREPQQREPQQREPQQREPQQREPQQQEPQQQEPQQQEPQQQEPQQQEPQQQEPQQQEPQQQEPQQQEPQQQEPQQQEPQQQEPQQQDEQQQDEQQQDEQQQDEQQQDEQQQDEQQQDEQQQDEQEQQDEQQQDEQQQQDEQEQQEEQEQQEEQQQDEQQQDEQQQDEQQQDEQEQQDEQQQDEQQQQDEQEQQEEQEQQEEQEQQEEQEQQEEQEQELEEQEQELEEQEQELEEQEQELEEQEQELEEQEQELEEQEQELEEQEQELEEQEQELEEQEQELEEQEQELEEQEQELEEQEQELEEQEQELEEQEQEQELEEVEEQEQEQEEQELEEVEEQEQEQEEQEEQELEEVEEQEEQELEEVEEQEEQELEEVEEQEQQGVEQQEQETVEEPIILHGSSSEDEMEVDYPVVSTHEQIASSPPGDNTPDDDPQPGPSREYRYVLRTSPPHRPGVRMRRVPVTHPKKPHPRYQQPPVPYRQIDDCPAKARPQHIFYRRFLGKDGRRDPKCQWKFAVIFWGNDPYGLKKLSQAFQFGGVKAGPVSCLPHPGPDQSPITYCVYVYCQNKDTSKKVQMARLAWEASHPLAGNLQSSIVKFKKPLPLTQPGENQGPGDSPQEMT
# Vif TR-FRET: HIV-1 Vif–A3G interaction blockers – biochemical, TR-FRET, GST-Vif 1-94, biotin-A3G peptide, dose response retest, primary screen (AID 1117319). hit rate 0.57% among 260,000. inhibition, %; hits with a dose series show IC50 in µM. TR-FRET GST-Vif / biotin-A3G peptide binding; higher % means a stronger effect; test concentration not given here; strong numbers were not always called active;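 active = above the screen mean plus three standard deviations and confirmed in dose response; inconclusive = results disagree or hit not tested in dose response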;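 also: Vif residues 1-94 fused to GST binding biotinylated APOBEC3G peptide 110-148; 0% = full assay without inhibitor and 100% = GST in place of GST-Vif; retest series ran down from 100 µM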
# MLL AF4-AF9 inh: blocks AF4 peptide binding to human AF9; P42568; AlphaScreen, biotin-AF4 peptide binding to FLAG-AF9; inhibition, % at 10 µM; hit rate 0.47% among 350,000; AID 651704;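 active = every replicate reaching a set inhibition limit, whatever the replicate mean, cut at about 25% in these data; inconclusive = mean inhibition reaches that limit but some replicates miss it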;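 also: 0% = plate neutral control median and 100% = total signal loss; the record names both 10 and 1 µM as test concentration; the first replicate is given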
# A1 inh: inhibitors of the anti-apoptotic protein A1, read as caspase activation | AID 2462 | hit rate 0.066% among 330,000 | MEF A1-2A-BIM cells, Caspase-Glo 3/7 luminescence, 3 h; percent of clofoctol response, vehicle zero | caspase activation, % (test concentration not listed);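 active = over half of replicate activation scores above 10%, or exactly half above 10 with the replicate mean above 10; inconclusive = replicate mean below 10 yet half the replicates above 10; inactive = over half of replicates below 10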;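 also: wells of about 30 µL received 50 nL stock; many hits fall short of the cut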
# Beta cell apopt: blocks beta cell apoptosis | INS-1E cytokine-induced death, ATP luminescence, 48 h; percent of positive-control rescue, neutral wells zero | protection from apoptosis, % (test concentration not listed) | hit rate 0.8% among 300,000 | AID 435005;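 active = all replicates at 75% or more, or half of them and the mean; inconclusive = half reach 75% but not the mean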;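 also: 0% = cytokine-treated negative control wells and 100% = positive control rescue; higher means more ATP so stronger rescue from cytokine killing; wells of about 40 µL received 100 nL stock; the first replicate is given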
# T cruzi repl: blocks replication of Trypanosoma cruzi; T. cruzi beta-gal in NIH3T3, luminescence, 90 h; inhibition, % (test concentration not listed); hit rate 1.4% among 300,000; AID 1885;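 active = mean inhibition across valid replicates above about 55%, limit read from the data; inconclusive = mean below that limit but half or more replicates reach it; inactive = mean below it, under half of replicates reach it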;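 also: signal also drops with host cell toxicity which is not excluded here; 0% = plate median of DMSO wells and 100% = zero luminescence signal; higher percent means less beta-gal luminescence so fewer parasites; stock transfer was 50 nL into about 50 µL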
# Calb FLC: affects C. albicans growth with fluconazole; growth inhibition, % (no concentration beside the values); C. albicans CaCi-2 (fluconazole-resistant clinical isolate) + fluconazole, Alamar Blue growth, 48 h; AID 1979; hit rate 0.57% among 300,000;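 active = most replicates above 75%; inconclusive = exactly half above 75%; inactive = most below 75%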;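 also: all wells also contain fluconazole at 8 µg/ml as a sub-toxic cotreatment; 0% = median of DMSO wells and 100% = median of geldanamycin control wells; wells of about 8 µL received 7.5 nL stock; the first replicate is given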
# RanGTP-Impb inh: disruptors of Ran-importin-beta complex formation – biochemical, FRET, CFP-Ran, YFP-importin-beta, homogeneous, primary screen. cell-free CFP-Ran/YFP-importin-beta FRET ratio. inhibition, % (test concentration not listed). hit rate 1.1% among 300,000. AID 2216;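 active = most replicates above 15%; inconclusive = exactly half above 15%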;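 also: 0% = DMSO wells and 100% = Ran loaded with GDP instead of GTP; wells of about 40 µL received 100 nL stock; the first replicate is given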
# Active calls of the source: *; ? = inconclusive; . = no result given; & = joins results of further samples.
SMILES,LANA-H2B inh,Vif TR-FRET,MLL AF4-AF9 inh,A1 inh,Beta cell apopt,T cruzi repl,Calb FLC,RanGTP-Impb inh
Cc1nn(C)c(C)c1CNC(=O)c1cnn2c1NC(c1ccccc1)CC2C(F)(F)F (stereo not drawn),15,23%&-2%,.,0.6,-5,7,-6,1.6
Cc1cc(C(F)(F)F)nc(-n2cc(-c3ccccc3)nn2)n1,-0.7,8%,-1.9,0.2,-1,10,2,-1.3
O=C(Cc1ccccc1)NN1C(=O)C2C3C=CC([C@@H]2C1=O)C31CC1 (stereo partly drawn),-1.8,2%,4.9,-0.3,-3,-9,1,?
CS(=O)(=O)N(CC(=O)N1CCCCCC1)c1ccc(Br)cc1,4.3,-3%,.,0.6,3,-11,-17,-5.3
O=C(CN1CSCC1=O)N1CCN(S(=O)(=O)c2ccc(Cl)cc2)CC1,-0.4,-5%,-4.2,-0.4,0,.,.,.
CC(/C=N/NC(=O)CSc1n[nH]c(=O)[nH]c1=O)=C\c1ccccc1,4.1,6%,0.0,-0.6,-1,-6,?,-0.7
Cc1ccc(CNC(=O)c2ccc3c(=O)[nH]c4c(C(=O)NCC5CCCO5)sc(=S)n4c3c2)cc1 (stereo not drawn),2.6,-9%,-0.7,-1.0,-3,-14,-1,3.0
CCCCN(CCCC)C(=O)c1sc2nc(N3CCOCC3)c3c(c2c1N)CCCC3,4.0,-17%,2.4,0.4,.,5,-7,1.1
COc1cc(/C=C/C(=O)OCC(=O)NCc2cccs2)ccc1OCC#N,-0.2,.,.,0.1,-13,1,?,?
Cc1ccc2oc(-c3cccc(NC(=O)Cn4cnc5c(=O)n(C)c(=O)n(C)c54)c3)nc2c1,0.1,-8%,.,0.3,8,13,122*,0.0
O=C(OCC(=O)N1CCc2ccccc21)c1ccc[n+]([O-])c1,-2.4,3%,.,-0.2,0,1,-6,3.5
COc1ccc(COc2ccc(S(=O)(=O)N3CCCC3)cc2C(N)=O)cc1F,0.3,-4%,-0.1,-0.3,4,-4,3,4.8
CCOC(=O)c1c(C)n(C)c2ccc(OC)c(NC(=O)CN3CCSCC3)c12,4.4,0%,.,0.3,0,-4,-5,?
CCOc1ccccc1NC(C)C(=O)Nc1cc(C(F)(F)F)ccc1N1CCOCC1 (stereo not drawn),-2.6,.,.,0.7,-4,2,0,2.3
Cc1nnc(N/N=C/c2ccccn2)[nH]c1=O,-1.3,2%,-2.4,0.7,109*,61*,102*,4.9
COc1ccc(N(C(=O)c2ccco2)C(C(=O)NC2CCCCC2)c2cccs2)cc1OC (stereo not drawn),-16,16%,.,-0.1,-3,-6,16,5.0
COC(=O)c1ccc(COc2ccc(C)cc2[N+](=O)[O-])o1,-2.4,.,.,-0.7,-10,1,8,-1.2
CCCCNC(=O)C1c2ccccc2C(=O)N(c2ccc(OC)cc2)C1c1ccc(OC)cc1 (stereo not drawn),-1.0,-2%,.,0.2,5,-11,-15,-2.3
C=CCNC(=O)C(=O)c1cccn1-c1ccsc1C(=O)OC,-5.9,-7%,.,0.4,-2,7,0,2.1
CCOC(=O)c1c(C)[nH]c(C)c1S(=O)(=O)NCC1CCN(Cc2cccc(F)c2)CC1,4.6,.,6.7,-1.7,-10,8,-31,2.0

# Continued, starting with the last 2 of the part before.
SMILES,LANA-H2B inh,Vif TR-FRET,MLL AF4-AF9 inh,A1 inh,Beta cell apopt,T cruzi repl,Calb FLC,RanGTP-Impb inh
C=CCNC(=O)C(=O)c1cccn1-c1ccsc1C(=O)OC,-5.9,-7%,.,0.4,-2,7,0,2.1
CCOC(=O)c1c(C)[nH]c(C)c1S(=O)(=O)NCC1CCN(Cc2cccc(F)c2)CC1,4.6,.,6.7,-1.7,-10,8,-31,2.0
Cc1ccccc1NC(=O)C1c2cccc[n+]2CC(=O)N1Cc1ccc2c(c1)OCO2 (stereo not drawn),-1.3,9%,-5.1,-0.4,2,18,-8,-0.9
O=C(Cc1ccccc1)NCc1cccnc1,-1.3,?,-4.6,0.6,-3,2,4,0.0
COc1cccc(N2CCN(C(C)C(=O)NC34CC5CC(CC(C5)C3)C4)CC2)c1 (stereo not drawn),-3.9,.,7.0,0.3,-7,10,2,-0.9
O=C(CSc1nccc(=O)[nH]1)Nc1ccc(F)c([N+](=O)[O-])c1,9.5,21%,0.4,0.5,-4,11,8,-6.3
CC(N)=Nc1ccc([N+](=O)[O-])cc1,4.0,3%,.,?,-4,0,7,-4.7
COc1ccc(C(=O)C2CCCN(Cc3ccc(C#CCCO)cc3)C2)cc1F (stereo not drawn),-8.5,-6%,9.1,0.0,0,59*,?,0.2
C/C(=N\NC(=O)C1(C)CC1(Br)Br)c1ccc([N+](=O)[O-])cc1 (stereo not drawn),-1.5,.,0.8,0.4,-9,8,8,-0.3
Cc1ccc(NC(=O)Cn2c(=O)n(CCC(=O)NC3CCN(Cc4ccccc4)CC3)c(=O)c3ccccc32)cc1,-3.3,-10%,-6.7,0.2,2,-1,3,-4.8
O=C(Cc1ccccc1)Nc1cccnc1,2.6,4%,-2.3,0.9,-2,-22,-18,11
CCCC(=O)OCC(=O)Nc1ccc([N+](=O)[O-])cc1C#N,-2.1,5%,6.3,0.9,0,-8,5,-4.1
CCOc1ccc(S(=O)(=O)Nc2cccc(C(=O)NCCCN3CCOCC3)c2)cc1,6.9,-13%,1.2,-0.4,7,.,.,.
Cc1cc(C)n(CNc2nc(C(F)(F)F)cs2)n1,-0.5,7%,.,0.1,0,-8,-1,1.1
CCN(C[C@H]1N[C@@](C)(C(=O)OC)[C@H]2C(=O)N(Cc3ccccc3)C(=O)[C@@H]12)S(=O)(=O)c1ccc(C(C)(C)C)cc1,-0.4,6%,0.7,-0.2,-1,.,.,.
COc1ccc(C2C=C(c3ccccc3)Nc3nnnn32)cc1 (stereo not drawn),7.2,2%,1.2,0.4,-11,-31,12,0.3
CCN(CC)CCCCCOc1ccccc1OC,2.6,-4%,4.6,0.4,-5,7,-2,-1.4
COc1ccc(NCCC#N)cc1,-0.1,3%,.,-0.1,2,19,9,1.3
CNC(=O)CN(c1cc([N+](=O)[O-])ccc1OC)S(C)(=O)=O,-6.0,.,.,-1.5,1,-6,-3,2.3
COc1ccc(NC(=O)Nc2cccc3cccnc23)cc1,-4.2,-6%,.,-5.8,9,-6,-27,-0.4
COc1ccc(-c2nc3c(-c4ccc(Cl)cc4)cnn3cc2C)cc1F,-0.5,-2%,0.4,0.8,6,6,6,-1.0
Cc1cc(NC(=O)CCC(=O)N(CC(=O)NCC2CCCO2)Cc2ccc(F)cc2)no1 (stereo not drawn),-3.6,6%,.,0.9,.,-14,-10,2.8
CCC(=Nc1ccccc1OC)C1=C(O)CC(c2ccccc2)CC1=O (stereo not drawn),-3.3,-1%,0.2,-0.8,.,-1,-11,11
O=C(NNC(=S)Nc1ccccc1)C1CCCCC1,3.3,1%,-1.3,-0.6,2,5,-7,178*
COc1ccc(OC)c(/C=C2\SC(N3CCCC(C)C3)=NC2=O)c1 (stereo not drawn),-2.0,.,-32,0.7,-6,17,6,-49
CC(C)(C)NC(=O)C(c1ccncc1)N(Cc1cccs1)C(=O)Cn1nnc(-c2cccs2)n1 (stereo not drawn),-0.4,12%,.,0.3,10,4,2,0.1
Cc1cc(Nc2c(C)n(C)n(-c3ccccc3)c2=O)c2ccccc2n1,0.4,1%,-1.5,0.5,7,9,12,-0.1
COc1cc(NC(=O)C(C)Oc2ccccc2)cc(OC)c1 (stereo not drawn),0.5,18%,.,-0.8,-6,-11,-7,1.6
O=C(NC1CCCC1)c1cc(S(=O)(=O)N2CCCC2)ccc1Cl,-2.5,.,-4.5,-0.2,-4,3,16,2.5
Cc1c2cnn(CC(=O)N3CCN(c4ncccn4)CC3)c(=O)c2c(C)n1Cc1ccc(F)cc1,-11,.,.,-0.2,-10,-5,-2,1.4
CN1CCN(C2=C(Cl)C(=O)C(c3cnc(N4CCCCC4)s3)=C(Cl)C2=O)CC1,-0.4,2.5µM*,.,1.5,5,30,-7,-0.9
C[C@@H]1CCC2[C@](C)(CO)[C@@H](O)CC[C@]2(C)[C@@]12C[C@](CO)(CC(=O)O)CO2 (stereo partly drawn),-2.2,-8%,-0.8,1.2,2,-3,-12,-3.1
CCc1cc(=O)oc2cc(C)cc(OC(C)C(=O)NCCCN3CCOCC3)c12 (stereo not drawn),1.1,.,1.4,-1.2,-10,?,6,1.5
COC(=O)c1ccn(C(=O)c2ccc(Cl)cc2)n1,-5.6,-1%,.,0.0,-1,-13,-18,3.6
Cc1ccc(C(=O)Nn2cnnc2)cc1Cl,1.5,.,-0.6,0.5,-4,-2,-4,5.7
CCc1nnc(NC(=O)CSc2ccc(-c3nc4ccccc4[nH]3)cn2)s1,-5.9,16%,.,-1.6,6,-17,-1,2.1
O=C(NCCCN1CCC(Cc2ccccc2)CC1)C1CCN(S(=O)(=O)N2CCC3(CC2)OCCO3)CC1,5.8,-2%,-1.8,1.6,3,-4,-7,-1.3
COc1ccc(CCNCc2c(OC)ccc3ccccc23)cc1OC,-4.4,-1%,-1.7,0.5,7,6,-34,0.8
O=C(CCCOc1ccccc1)NC(=S)Nc1ccccc1,1.3,1%,-1.7,-0.1,5,11,-15,-1.9
COc1ccc(C(=O)NNC(=O)CSc2nnc(C3CC3)n2C)cc1,1.8,-1%,-0.6,-0.4,8,7,-16,1.6
Cc1ccc2nc(SCC(=O)N(C)C3CCS(=O)(=O)C3)[nH]c2c1 (stereo not drawn),.,-17%,-21,-0.7,-3,.,.,.
CCOC(=O)C(=CNc1ccc(OC)cc1[N+](=O)[O-])C(=O)OCC,1.6,8%,0.0,-0.8,-1,10,11,4.5
CC1(C)CC2(CC(c3ccccc3)Oc3cc(O)ccc32)NC(=S)N1 (stereo not drawn),0.7,12%,5.4,0.8,6,16,56,5.4
NS(=O)(=O)c1ccc(CCNC(=O)c2ccc(S(=O)(=O)N3CCCCC3)cc2)cc1,2.0,0%,.,-0.1,-3,-8,-5,-1.3
CCOC(=O)c1ccc(S(=O)(=O)Nc2cc(S(=O)(=O)Nc3ccc(OC)cc3)ccc2O)cc1,-0.7,3%,-3.1,0.5,-4,.,.,.
CC(C(=O)NC1CCCCCC1)N(c1ccccc1)S(C)(=O)=O (stereo not drawn),1.1,0%,.,?,-2,-14,-23,1.0
O=C(NCc1cn2ccccc2n1)C1CCC(=O)N(Cc2ccccc2F)C1 (stereo not drawn),-0.8,.,1.2,0.6,-6,6,2,0.3
O=C1/C(=C/c2ccco2)Cc2ccccc21,3.2,?,-3.1,-0.8,-4,-5,1,4.2
COc1ccc(NC(=O)c2ccco2)cc1NC(=O)c1ccco1,1.2,8%,.,0.3,5,-1,-7,?
CC(C)=CCC/C(C)=C/COc1ccc2ccc(=O)oc2c1,-0.6,3%,-0.5,2.1,3,0,1,0.4
CC(C)C(OC(=O)c1ccco1)C(=O)NC1CCCC1 (stereo not drawn),3.0,.,-19,0.7,-5,-1,-3,-2.9

# This is a random part of the collection. Share with any hit: about 4.3%.
